# Screening results: PubChem, National Center for Advancing Translational Sciences (NCATS)
# Cruzain inh Det – inhibitors of Trypanosoma cruzi cruzain with detergent; P25779; purified cruzain, Z-FR-AMC fluorescence, 0.01% Triton; Potency, µM, inactives show max response, negative = inhibition, actives largely listed as inhibitors; 200,000 compounds, 0.43% hits; AID 1478;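 also: plate controls were neutral wells for no effect and buffer without enzyme for full effect; nearly all actives have a fitted effect of over 40% in size; top concentration of the series not given in the record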
# Target sequence (P25779 123-467 limits assumed): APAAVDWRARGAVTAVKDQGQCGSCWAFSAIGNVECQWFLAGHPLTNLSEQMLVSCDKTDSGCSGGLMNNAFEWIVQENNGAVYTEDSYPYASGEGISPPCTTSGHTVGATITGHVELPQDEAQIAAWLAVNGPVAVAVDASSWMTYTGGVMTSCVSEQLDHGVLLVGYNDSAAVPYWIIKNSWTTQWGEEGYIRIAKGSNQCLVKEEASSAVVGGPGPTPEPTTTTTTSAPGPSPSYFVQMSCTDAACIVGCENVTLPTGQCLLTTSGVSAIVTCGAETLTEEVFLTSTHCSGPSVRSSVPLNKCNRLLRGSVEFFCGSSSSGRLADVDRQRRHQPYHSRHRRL
#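 Sodium acetate buffer (100 mM, pH 5.5) containing 5 mM DTT and 0.01% Triton X-100 hosted 1.5 nM cruzain and test compound for 15 min at room temperature. Cleavage of 2 uM Z-FR-AMC was then tracked by fluorescence.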
# 2A StopGo – FMDV 2A StopGo reporter, luciferase signal | 410,000 compounds, 1.2% hits | human cells with a luciferase reporter of 2A StopGo recoding; control for the full effect not named in the record | Potency, µM (top dose mostly 57.9 µM), for the others: top-dose signal change, negative = less light | AID 1159524; active = well fitted falling curve with a large enough effect; inconclusive = small, poorly fitted or top-dose-only effect; inactive = no such curve, though single readings can be large or run the other way; tested in HEK293T cells; also: % is scaled to controls: 0 for no effect and ±100 for the full control effect; nearly all actives have a fitted effect of over 45% in size; luciferase light after 4 h
# RE007 growth inh – less growth of the S. pombe RE007 Vpr strain | S. pombe RE007 Vpr strain, BacTiter-Glo ATP luminescence, 24 h; control for the full effect not named in the record | Potency, µM (highest dose often 92.2 µM), for the others: at the highest dose activity change, negative = less growth | 360,000 compounds, 0.21% hits; active = well fitted falling curve with a large enough effect; inconclusive = small, poorly fitted or top-dose-only effect; inactive = no such curve, though single readings can be large or run the other way;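 also: % is scaled to controls: 0 for no effect and ±100 for the full control effect; nearly all actives have a fitted effect of over 50% in size; the assay follows cell death caused by Vpr and the record does not say whether a fall means rescue or toxicity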
#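 Fission yeast RE007 carrying one integrated HIV-1 vpr copy, seeded at OD 0.01 in PMG+AL medium with 23 nL pinned compound. Grown 24 h at 30 degrees; viability read by BacTiter-Glo luminescence after 5 min.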
# MARV entry inh – Marburg virus entry inhibition; 300,000 compounds, 1.8% hits; Marburg virus pseudotyped entry inhibition, cell reporter; control for the full effect not named in the record; about a third of the inactives were read at about 46 µM; Potency, µM (titrated, usually from 37.8 µM), for the others: at the top dose activity change, negative = inhibition, usual class: inhibitors; AID 540276; active = well fitted inhibition curve with a large enough effect; inconclusive = small, poorly fitted or top-dose-only effect, or effect the other way; inactive = flat fitted curve, though single readings scatter; tested in HEK293 cells; about a fifth of its hits are not listed in these tables; also: % is scaled to controls: 0 for no effect and ±100 for the full control effect; luciferase read-out
# NS1 function inh – blocks influenza NS1 protein function | S. cerevisiae slowed by influenza A NS1, growth recovery by OD600 | Potency, µM (highest dose often 46.1 µM), without a hit: top-dose activity, positive = more growth | 270,000 compounds, 0.4% hits | AID 2326; active means well fitted rising curve with a large enough effect; inconclusive means small, poorly fitted or top-dose-only effect; inactive means no such curve, though single readings can be large or run the other way; also: nearly all actives have a fitted effect of over 50% in size
#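 S. cerevisiae expressing influenza A NS1, grown in glucose, washed, then diluted 1:100 into pH 6.0 -URA galactose medium with 23 nl compound. Growth recovery read as OD600; NS1-free strain serves as control.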
# SARS PLpro yeast – inhibitors of SARS-CoV papain-like protease in yeast | S. cerevisiae expressing SARS-CoV PLpro, growth rescue; control for the full effect not named in the record | 330,000 compounds, 0.19% hits | Potency, µM (highest dose often 32.9 µM), for the others: at the highest dose activity, positive = growth rescue | AID 485353; active means well fitted rising curve with a large enough effect; inconclusive means small, poorly fitted or top-dose-only effect; inactive means no such curve, though single readings can be large or run the other way; also: 0% is about no effect; nearly all actives have a fitted effect of over 55% in size; growth read by luminescence after 48 h
# Cruzain noTriton – inhibitors of Trypanosoma cruzi cruzain without detergent; purified cruzain, Z-FR-AMC fluorescence, no detergent; P25779; Potency, µM, inactives show max response, negative = inhibition, hits mostly inhibitors; 200,000 compounds, 2.3% hits;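 also: plate controls were enzyme without inhibitor for no effect and buffer without enzyme for full effect; nearly all actives have a fitted effect of over 40% in size; top concentration of the series not given in the record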
#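 Purified cruzain at 1.5 nM, pre-incubated 15 min with compound at room temperature in 100 mM sodium acetate pH 5.5, 5 mM DTT, 0.00005% Triton X-100. Reaction started with 2 uM Z-FR-AMC; AMC fluorescence increase over 60 s gives rate.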
# LASV entry inh – Lassa virus entry inhibition | Lassa virus pseudotype entry inhibition, cell reporter; control for the full effect not named in the record | Potency, µM (top dose mostly 37.9 µM), inactives show at the highest dose activity change, negative = inhibition, actives largely listed as inhibitors | 300,000 compounds, 1.2% hits; active means well fitted inhibition curve with a large enough effect; inconclusive means small, poorly fitted or top-dose-only effect, or effect the other way; inactive means flat fitted curve, though single readings scatter; tested in HEK293 cells; also: % is scaled to controls: 0 for no effect and ±100 for the full control effect; nearly all actives have a fitted effect of over 50% in size; luciferase read-out
# * = called active by the depositor; ? = inconclusive; · = not tested or not shown; & = joins results of further samples; [ ] = dose if it differs, or a comment. Unless noted, calls follow the shape of the dose curve; as a rule, active = well fitted curve in the direction sought with a large enough effect; inconclusive = small, poorly fitted or top-dose-only effect, or another doubt; inactive = no such curve, though single readings can be large; an effect the other way counts as inactive or inconclusive. Potency is read from the fitted curve at half-maximal effect.
SMILES,Cruzain inh Det,2A StopGo,RE007 growth inh,MARV entry inh,NS1 function inh,SARS PLpro yeast,Cruzain noTriton,LASV entry inh
CCOC(=O)c1c(/N=C/N(C)C)sc(/C=N/Nc2ccccc2)c1-c1ccc(Cl)cc1,-1.9%,-1.6%,-4.4%,?,15.8%,1.2%,?,-3.2%
C=CCN(Cc1ccc(Cl)s1)C(=O)c1ccc(F)c(S(=O)(=O)N2CCOCC2)c1,·,-20.7%,3.2%,-25.9%,·,0.3%,·,-21.4%
Cc1ccc(C(C)C)c(OCCNCCc2ccccc2)c1,·,?,2.1%,·,-26.8%,-4.7%,·,·
CCOC(=O)CSc1nc(-c2ccccc2)cc(C(F)(F)F)n1,-10.2%,-27.9%,1.1%,-9.4%,-2.0%,14.2%,-11.1%,7.0%
CC(c1ccon1)N(C)C(=O)CCc1nnc(CCCCc2ccccc2)o1 (centres undefined),·,4.6%,4.3%,-11.4%[46.1 µM],0.1%,1.3%,·,-19.9%[46.1 µM]
COc1cc2c(cc1NC(=O)Nc1ccc(F)cc1)oc1ccccc12,-0.7%,-4.9%,-10.2%,0.3%,12.3%,2.4%,?,2.1%
N#CCCN1CCN(S(=O)(=O)c2cc(Cl)ccc2Cl)CC1,·,-4.8%,9.5%,9.6%,3.0%,-1.7%,·,19.8%
COC(=O)c1ccc(CN2CCN(Cc3ccc(C(=O)OC)o3)CC2)o1,3.4%,7.6%,3.3%,-1.2%,?,-1.6%,14.0%,1.2%
CCCC(=O)Nc1nc2n(n1)C(c1ccccc1)CC(=O)N2 (centres undefined),6.5%,14.0%,1.5%,16.1%,-2.1%,3.0%,-4.4%,10.0%
CC1c2ccccc2SC(CCCN(C)C)c2ccccc21 (centres undefined),4.4%,?,-3.0%,5.17µM*,-4.6%,-13.6%,7.0%,?
Cc1cccc(-c2nsc(SCC(=O)NCc3ccc4c(c3)OCO4)n2)c1,0.5%,-2.4%,-2.7%,-4.1%,-11.8%,1.8%,0.5%,0.4%
Cn1c(N)c(C(=O)COC(=O)c2cc(C(F)(F)F)nc3ccccc23)c(=O)n(Cc2ccccc2)c1=O,-6.2%&-5.4%,-28.6%,-0.5%,-26.1%,?,-3.7%,0.3%&2.0%,-6.5%
O=C(CN1CCOCC1)Nc1ccc(Oc2ccccc2)cc1,0.5%,19.8%,5.8%,3.6%,-10.9%,0.4%,3.5%,14.4%
O=C(Cc1sc(Nc2ccccc2)nc1-c1ccccc1)NCc1ccccn1,·,58.1%[activator],2.1%,16.1%[46.1 µM],·,0.6%,·,·
CN(C)S(=O)(=O)c1cccc(NC(=O)COC(=O)c2cc(=O)[nH]c(=O)[nH]2)c1,·,-0.4%,1.9%,20.3%[46.1 µM],3.3%,9.8%,·,10.8%
COc1cc([N+](=O)[O-])ccc1NC(=S)NC(=O)CC(C)(C)C,·,34.3%[activator],2.0%,28.2%,7.3%,-0.1%,·,-0.8%
O=C(CSc1nc2ccccc2s1)N/N=C/c1cc([N+](=O)[O-])ccc1O,·,0.4%,-13.0%,-12.5%[46.1 µM],-43.3%,6.0%,·,-19.3%[46.1 µM]
CCOc1ccc(C(=O)CCC(=O)NCC(=O)OCc2ccccc2)cc1OCC,·,12.0%,-14.2%,-24.8%[46.1 µM],19.2%,0.5%,·,-7.8%[46.1 µM]
Cc1ccc(/C=C/C(=O)Nc2cc(S(N)(=O)=O)ccc2O)cc1,·,10.6%,3.3%,?,·,-7.2%,·,-4.1%
Cc1cc(CNC(=O)Cc2ccc(F)cc2)c2ccccc2n1,·,-16.9%,3.5%,3.4%[46.1 µM],·,2.7%,·,8.9%
O=C(CNCc1ccc(Cl)cc1)Nc1ccc(C(=O)N2CCCCCC2)cc1,·,10.6%,20.2%,-19.7%[46.1 µM],-16.4%,0.4%,·,-17.6%
O=C(O)c1ccc2c(c1)C(=O)N(c1cccc3ccccc13)C2=O,·,-14.9%,-0.4%,13.7%[46.1 µM],0.7%,-0.8%,·,16.2%[46.1 µM]
COc1ccc(-c2cc(=O)n(CCC#N)[nH]2)cc1,-0.5%,-1.1%,1.3%,-1.1%,10.0%,0.2%,-4.4%,-7.9%
CC(/C=N/N1CCN(c2ccc(C)cc2)CC1)=C\c1ccccc1,-1.0%,-3.1%,-7.8%,-5.3%,9.9%,6.7%,-29.3%,23.4%
CC(=O)c1cc(CN2CCC(n3nccc3NC(=O)c3ccccc3Cl)CC2)cs1,·,-22.5%,4.6%,5.1%,21.4%,2.3%,·,0.0%
COc1ccc([N+](=O)[O-])cc1NC(=O)Cn1ccsc1=N,-9.7%,-18.0%,-18.1%,21.2%,-3.5%,4.2%,-1.8%,?
CN(C)c1nc(Oc2ccc(C(=O)OCC(=O)Nc3ccccc3)cc2)nc(N(C)C)n1,3.2%,?,0.8%,-7.6%,18.0%,13.0%,?,0.4%
C=CCn1c(COc2ccccc2)nnc1SCC(=O)N/N=C/c1ccc(C)cc1,1.9%,33.0%[activator],4.0%,?,-11.0%,5.9%,8.6%,?
COc1ccc(N(CC(=O)Nc2ccccc2F)S(=O)(=O)c2ccc(OC)c(OC)c2)cc1,·,-2.7%,-9.6%,·,14.9%,0.0%,·,·
O=C(Cn1cnc2onc(-c3ccc(F)cc3)c2c1=O)Nc1ccc(F)c(Cl)c1,-2.0%,-26.9%,·,·,·,·,-8.6%,?

# Profiles from above.
# Entry for COc1cc([N+](=O)[O-])ccc1NC(=S)NC(=O)CC(C)(C)C : Cruzain inh Det = ·; 2A StopGo = 34.3%[activator]; RE007 growth inh = 2.0%; MARV entry inh = 28.2%; NS1 function inh = 7.3%; SARS PLpro yeast = -0.1%; Cruzain noTriton = ·; LASV entry inh = -0.8%
# Entry for CCOc1ccc(C(=O)CCC(=O)NCC(=O)OCc2ccccc2)cc1OCC : Cruzain inh Det = ·; 2A StopGo = 12.0%; RE007 growth inh = -14.2%; MARV entry inh = -24.8%[46.1 µM]; NS1 function inh = 19.2%; SARS PLpro yeast = 0.5%; Cruzain noTriton = ·; LASV entry inh = -7.8%[46.1 µM]
# Entry for C=CCN(Cc1ccc(Cl)s1)C(=O)c1ccc(F)c(S(=O)(=O)N2CCOCC2)c1 : Cruzain inh Det = ·; 2A StopGo = -20.7%; RE007 growth inh = 3.2%; MARV entry inh = -25.9%; NS1 function inh = ·; SARS PLpro yeast = 0.3%; Cruzain noTriton = ·; LASV entry inh = -21.4%

# Additional entries
SMILES,Cruzain inh Det,2A StopGo,RE007 growth inh,MARV entry inh,NS1 function inh,SARS PLpro yeast,Cruzain noTriton,LASV entry inh
COc1ccc(NC(=O)/C=C/c2ccco2)cn1,·,31.5%[activator],2.4%,-29.4%[46.1 µM],10.8%,3.0%,·,-22.4%
Cc1cc(C)c2nc(NNC(=O)c3ccc(S(=O)(=O)N4CC(C)CC(C)C4)cc3)sc2c1 (centres undefined),0.1%,-19.1%,12.3%,14.6µM*,-10.4%,?,-8.9%,?
O=C(NNC(=O)C1CC(c2cccs2)=NO1)Nc1ccccc1 (centres undefined),·,2.9%,-17.0%,9.8%[46.1 µM],0.9%,5.8%,·,27.4%[46.1 µM]
COc1ccc(CN(C)C(=O)C(Cc2ccccc2)NC(=O)c2ccccc2)c(OC)c1 (centres undefined),·,1.2%,-1.2%,?,·,-22.8%,·,-22.7%
O=C(COc1ccc(Cl)cc1Cl)N/N=C/c1ccc[nH]1,·,18.6%,-6.5%,·,-8.8%,-2.5%,·,·
COc1ccc(CCN2CN(S(=O)(=O)c3ccccc3)c3nc4ccccc4nc32)cc1,-4.6%,40.1%[activator],-13.3%,?,10.7%,-2.5%,-2.9%,0.4%
CS(=O)(=O)N(Cc1ccccc1)c1ccc(C(=O)Nc2ccc(C(N)=O)cc2)cc1,·,-5.2%,11.6%,·,22.1%,7.9%,·,·
Cc1nn(-c2cc(Cl)ccc2N)c(=O)c2ccccc12,-7.3%,·,2.8%,1.4%,6.3%,4.3%,-19.1%,14.8%
CCOC(=O)CN1C(=O)SC(CC(=O)Nc2nccs2)C1=O (centres undefined),3.0%,-17.5%,-14.7%,-18.9%,-6.9%,7.4%,-4.6%,-13.3%
CCn1c(SCCN2CCCCC2)nnc1-c1ccc(S(=O)(=O)N2CCOCC2)cc1,5.5%,0.0%,-11.6%,0.5%,1.7%,27.9%,11.3%,-3.1%
O=C(CSc1ccsc1[N+](=O)[O-])NCCc1ccccc1,0.4%,3.8%,-18.0%,?,2.2%,27.3%,7.3%,-1.3%
O=C(CSc1nnc(-c2ccc(Cl)s2)o1)N1CCOCC1,-1.1%,·,·,·,?,27.5%,-13.5%,·
O=C(NCc1ccc(Cl)cc1Cl)C1CCN(S(=O)(=O)c2ccc3c(c2)OCCCO3)CC1,-5.3%,-8.0%,10.0%,?,-11.1%,-7.6%,-22.6%,?
COC(=O)c1cc(Br)c(=O)n(-c2ccc(OC)cc2)c1,-1.9%,4.0%,0.2%,0.0%,3.1%,0.3%,?,21.2%
CC(C)(C)CN1CCC(Oc2cccc(C(=O)N3CCC[C@H]3CO)c2)CC1,·,-19.8%,-1.9%,·,-6.1%,-3.5%,·,·
CCN(CC)C(=O)Cn1cc(C=C2C(=O)N(C)C(=O)N(C)C2=O)c2ccccc21,·,-13.4%,16.7%,-18.3%,7.0%,-1.2%,·,-11.9%
O=C(CN1CCC(NC(=O)C2CCCCC2)CC1)Nc1cccc(F)c1,·,-17.3%,-9.0%,7.5%[46.1 µM],7.4%,-9.7%,·,-1.2%
CCCNC(=O)C(=O)c1cccn1-c1ccsc1C(=O)OC,-0.7%,17.8%,-3.3%,10.5%,-11.0%,-6.2%,-13.7%,-0.5%
COc1ccc(NC(=O)CSc2nc(-c3ccccc3)c3ccccc3n2)cc1,2.6%,-17.1%,·,-3.0%[46.1 µM],·,·,-9.9%,-13.3%[46.1 µM]
